Assay outcomes: PubChem, ICCB-Longwood Screening Facility, Harvard Medical School
AID504770 – growth inhibition of E. coli YBA685, primary screen, V. cholerae RctB inhibitors; E. coli YBA685 rctB-dependent plasmid, OD600 growth, 3 h; active compounds read low; z-score (no concentration beside the values); actives 0.27% (n = 130,000);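 active = z-score under -2 on both plates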;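 note: wells of about 30 µL received 100 nL stock; score is relative to mean and SD of the test wells; the first replicate is given; strong numbers were not always called active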
CapD inh – Bacillus anthracis CapD inhibitors, primary screen, biochemical, fluorescence intensity. CapD gamma-glutamyltranspeptidase (Bacillus anthracis Ames Ancestor). purified CapD enzyme, fluorescence intensity read-out; active compounds read low; some hits fall short of the stated cut. z-score (concentration not given with the values). actives 0.23% (n = 140,000). AID 492967, 2010;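 active = z-score under -4 in either of two replicates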;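 note: stock transfer was 100 nL into about 40 µL; score is relative to mean and spread of the plate; one replicate is shown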
An asterisk follows results filed as active; x = not tested or not shown.

SMILES,AID504770,CapD inh
Cc1cc(C)nc(NS(=O)(=O)c2ccc(Nc3nc(-c4cccc([N+](=O)[O-])c4)cs3)cc2)n1,x,-1.2
O=C(COc1ccccc1O)c1ccccc1,-0.15,0.02
C=CCNc1ncnc2c1cnn2-c1cccc(Cl)c1,2.1,x
COc1cccc(C2N(c3ccccc3)C(=O)N3CCCN23)c1 (configuration not stated),0.8,0.38
O=C(c1cccc(C(=O)N2CCCCC2)c1F)N1CCCCC1,-0.15,-0.09
Cc1ccc(NC(C)C(=O)Nc2cccc(C(F)(F)F)c2)cc1 (configuration not stated),-0.6,-0.74
Cn1ccc2c(OCC(N)=O)cccc2c1=O,-1.2,x
COc1ccc(Nc2[nH]nc(NC(=O)COc3ccc(Cl)cc3)c2C#N)cc1,0.65,x
CC(=O)N(C)C1(c2nnnn2-c2cccc(C)c2)CCCCC1,x,6.4
CC(=O)Nc1ccccc1-c1ccc(C)o1,0.9,3.6

Complete entries, looked up by structure.
Record of COc1ccc(Nc2[nH]nc(NC(=O)COc3ccc(Cl)cc3)c2C#N)cc1 → AID504770: 0.65; CapD inh: x
Record of CC(=O)Nc1ccccc1-c1ccc(C)o1 → AID504770: 0.9; CapD inh: 3.6

(continued)
SMILES,AID504770,CapD inh
N#Cc1ccc(COC(=O)CC2Oc3ccccc3NC2=O)cc1 (configuration not stated),-0.45,x
COC(=O)Cc1nc(NS(=O)(=O)c2cccc(C)c2)sc1C,0.3,0.73
CC1(C)CC2=NN(c3ccccc3)P(=O)(N3CCCCC3)C2=C(N2CCOCC2)C1 (configuration not stated),-0.25,x
COc1ccc(-n2ncc(N3CCC(C(N)=O)CC3)c(Cl)c2=O)cc1,x,-0.25
COc1ccccc1NC(=S)N1CCCCC1CO (configuration not stated),-0.5,-0.15
Cc1cc2ccccc2n1CCNC(=O)C1(c2ccc(Cl)cc2)CCCC1,-0.6,0.61
CCO/C=C1\SC(=S)N(c2ccc(C(C)C)cc2)C1=O,-0.45,0.065
CCNc1cc(Nc2ccc(Cl)cc2)c([N+](=O)[O-])c2nonc12,x,-0.18
CCC(C(=O)NCc1ccccn1)c1ccccc1 (configuration not stated),-0.55,0.77
N#Cc1cccc(NC(=O)CSc2ccc(Cl)cc2)c1,x,-0.76
C=CCNC(=O)Nc1ccc(OCC)cc1,-0.7,-0.42
CCCN(CCC)S(=O)(=O)c1ccc(C(=O)Nc2nc3c(F)cc(F)cc3s2)cc1,x,-0.47
COC(=O)c1cc(Cn2nc(C(=O)O)c3ccccc3c2=O)oc1C,0.05,x
CC(=O)N1CCN(Cc2csc(Nc3ccccc3)n2)CC1,0.25,x
CCN(CC)C(=O)CSc1nc(-c2cccs2)cc(C(F)(F)F)c1C#N,x,4.1
O=C(NCCC1=CCCCC1)C1CCN(C(=O)c2cc3sccc3n2Cc2ccc(F)cc2)CC1,0.65,-0.88
FC(F)(F)C(Oc1nc(N2CCCCC2)nc(N2CCOCC2)n1)C(F)(F)F,x,-0.2
CCCn1c(C)cc(C(=O)Cn2ncc(Cl)c(Cl)c2=O)c1C,-0.15,x
Cc1cccc(OCC(O)CN2C(C)(C)CC(O)CC2(C)C)c1 (configuration not stated),-0.2,0.26
C=CCn1c2ccccc2c2nnc(SCC(=O)Nc3nnc(CC(=O)OCC)s3)nc21,x,-0.74
CCOC(=O)CN(C1=NS(=O)(=O)c2ccccc21)c1ccccc1,1.1,-0.36
O=C(c1ccccc1)c1ccc2c3c(cccc13)CC2,-0.65,-1
O=C(CSc1ccccc1C(=O)Nc1ccc(-n2cnnn2)cc1)NCc1ccco1,-0.4,x
CC1CN(C(=O)CCC(=O)N(C)Cc2ccccc2)c2ccccc2O1 (configuration not stated),0.15,-0.43
CCOC(=O)/C=C1\SCC(=O)N1CCOc1ccccc1C#N,1.3,x
CCN(CC)S(=O)(=O)c1ccc(N2CC(C(=O)N3CCCc4ccccc43)CC2=O)cc1 (configuration not stated),-0.5,x
Cc1cccc(C(=O)c2c(N3CCOCC3)[nH]c(=O)c3ccccc23)c1,-1.4,0.96
O=C(CCN1C(=O)/C(=C/c2ccc(F)cc2)SC1=S)Nc1cc([N+](=O)[O-])ccc1O,x,0.09
C=CCn1cc(C(=O)NC2CCCC2)c(=O)c2cc(S(=O)(=O)N(CC)CC)ccc21,1.6,-0.06
Cc1cc2nc3s/c(=C\c4ccc(C(C)C)cc4)c(=O)n3c2cc1C,-0.95,-0.46
O=C(NC(c1ccccc1)c1ccccc1)C1CCN(c2ncccn2)CC1,1.5,-0.42
O=C(c1ccccc1)N(c1ccccc1)C1C=CS(=O)(=O)C1 (configuration not stated),-0.7,-0.96
CCN(CC(=O)O)S(=O)(=O)c1ccccc1,2.3,-0.94
CN(Cc1ccccc1)S(=O)(=O)c1ccc2c(c1)CCCC(=O)N2,-0.3,0.57
CCOc1ccccc1CN1CCC(N(C)S(=O)(=O)c2cc(F)ccc2C)C1 (configuration not stated),x,0.68
Cc1cc(NC(=O)CCS(=O)(=O)c2nc(-c3ccc4c(c3)OCO4)cc(C(F)(F)F)n2)no1,x,0.45
CN1C(=O)C2(NN=C(c3cccc4ccccc34)S2)c2ccccc21 (configuration not stated),x,-0.91
COc1ccc(-c2noc(N3CCC(C(=O)NC(C)c4ccccc4)CC3)n2)cc1 (configuration not stated),0.35,0.15
O=C1C2Sc3[nH]c(=O)sc3C(/C=C/c3ccccc3)C2C(=O)N1c1ccc(Br)cc1 (configuration not stated),0.3,-0.005
O=C(COc1ccccc1O)Nc1ccccc1Br,-0.15,0.07
CNC(=O)COc1ccccc1Br,-0.55,x
CCOC(=O)Nc1ccc2c(CN3CCc4ccccc4C3)cc(=O)oc2c1,-0.45,x
O=C(CCCn1c2ccccc2c2cn[nH]c(=O)c21)NC1CCCCCC1,0.5,3.5
Cc1c(C(=O)N(C)Cc2ccccc2)sc2ncnc(N3CCN(c4ccccc4)CC3)c12,1,-0.26
COC(=O)c1cn(NC(=O)c2ccncc2)c(=O)c2ccccc12,-1.6,-1.1
CC1(C)C(C#N)=C(S)NC(=O)C1C#N (configuration not stated),-0.6,x
CCOc1ccc2cc(C3CC(c4ccco4)=NN3S(C)(=O)=O)c(=O)[nH]c2c1 (configuration not stated),-0.15,x
O=c1[nH]c(CN2CCc3ccccc32)nc2ccccc12,-0.2,x
CCCC(=O)NC(=S)Nc1ccccc1N1CCOCC1,2.3,x
N[C@@H](Cc1ccc(N(CCCl)CCCl)cc1)C(=O)O,x,1.3

Later entries:
SMILES,AID504770,CapD inh
CCOc1ccc(/C=N/NC(=O)Cc2cc(=O)[nH][nH]2)cc1,-0.65,-0.12
Fc1cccc(Cl)c1CSC1=NCCN1,2.1,0.54
O=C(NC(=S)N1CCCC1)C1CC1,1.4,x
CC1(C(=O)O)Cc2ccccc2C(=O)O1 (configuration not stated),-0.4,0.01
CC(N=CC1=C(O)CNC1=O)c1ccccc1 (configuration not stated),0.25,-0.04
CCOC(=O)c1cc2c(nc1C)-c1cc(Cl)cc(Cl)c1OC2O (configuration not stated),0.25,x
CN(CC(=O)Nc1ccc(Cl)cc1)C(=O)Cn1nnc2ccccc2c1=O,0.95,x
COC(=O)c1cc(S(=O)(=O)NC2CCCCNC2=O)oc1C (configuration not stated),0,0.33
COc1ccccc1CNC(=O)C1CCN(C(=O)c2ccco2)CC1,-0.45,x
O=C1c2ccccc2C(O)(c2ncc[nH]2)N1CCO (configuration not stated),-0.2,-0.26
O=C1CCCC(O)=C1C(c1ccc(Cl)cc1)C1C(=O)CCCC1=O (configuration not stated),x,-0.36
CC(C)Nc1ccccn1,-0.6,8.8
Oc1ccccc1C1CC(c2cccc(Br)c2)=NC(c2ccc(Br)cc2)N1 (configuration not stated),1.2,0.61
CCOC(=O)CSc1sc(C(=O)OCC)c(N)c1C(=O)N1CCOCC1,-0.9,-0.73
COc1ccc(CNc2cc(C)nc3ccc(OC)cc23)cc1,-1.1,x
COc1ccc(/C=C/C(=O)O)cc1S(=O)(=O)N(C)C,-3.6,x
Cc1cc(C(=O)CC#N)c(C)n1CC(F)(F)F,-0.4,x
COc1ccccc1NC(=O)C(C)Nc1ccc(C)cc1C (configuration not stated),0,x
CCC(Sc1nnc(-c2cc3occc3n2C)n1-c1ccccc1C)C(=O)NC1CCCC1 (configuration not stated),-0.05,0.015
Cc1cc(OCC(=O)N(Cc2ccc(C(C)C)cc2)C2CCS(=O)(=O)C2)cc(C)c1Cl (configuration not stated),0.15,-0.6
O=C(Nc1nc2ccc3ccccc3c2s1)c1ccccc1Cl,0.15,0.22
COc1ccccc1C1OC(CSc2nc3ccccc3o2)=NN1C(C)=O (configuration not stated),0.65,-0.69
O=c1/c(=C/c2cc(Cl)ccc2OCc2c(F)cccc2Cl)sc2nc3ccccc3n12,x,0.6
COc1ccccc1N1C(=O)/C(=C/c2ccc(-c3cc(Cl)ccc3Cl)o2)C=C1c1ccccc1,x,-0.28
Cc1c(C(=O)N2CCOCC2)oc2c1-c1nn(CC(=O)NC3CCCCC3C)cc1CC2 (configuration not stated),-1.2,5.7
CCc1ccnc(NC(=O)CC2(CC(=O)O)CCCC2)c1,-0.35,0.64
CCCCNS(=O)(=O)c1ccc2c(c1)Cc1cc(S(=O)(=O)NCCCC)ccc1-2,x,-0.24
N#Cc1sccc1COc1ccc(Cl)cc1,x,-0.02
CCOc1ccc(NC(=O)N(CC(C)C)CC(C)C)cc1,1,-0.46
CN1CCN(c2nnc(-c3ccc(Cl)cc3)c3ccccc23)CC1,x,-0.22

The final 6 compounds of the part above lead into the next:
SMILES,AID504770,CapD inh
Cc1c(C(=O)N2CCOCC2)oc2c1-c1nn(CC(=O)NC3CCCCC3C)cc1CC2 (configuration not stated),-1.2,5.7
CCc1ccnc(NC(=O)CC2(CC(=O)O)CCCC2)c1,-0.35,0.64
CCCCNS(=O)(=O)c1ccc2c(c1)Cc1cc(S(=O)(=O)NCCCC)ccc1-2,x,-0.24
N#Cc1sccc1COc1ccc(Cl)cc1,x,-0.02
CCOc1ccc(NC(=O)N(CC(C)C)CC(C)C)cc1,1,-0.46
CN1CCN(c2nnc(-c3ccc(Cl)cc3)c3ccccc23)CC1,x,-0.22
Ic1ccc(-c2nc(-c3ccccc3)c(-c3ccc(-c4ccc(-c5[nH]c(-c6ccc(I)cc6)nc5-c5ccccc5)cc4)cc3)[nH]2)cc1,x,2.5
O=C(c1ccc(Cl)cc1)N1N=C(c2ccc([N+](=O)[O-])cc2)CC1(O)C(F)(F)F (configuration not stated),x,0.04
O=C(CCC(=O)N1CCC(c2nc(-c3cccnc3)no2)CC1)NCc1ccc(Cl)cc1,x,-0.42
C=CCn1c2ccccc2c2nc3ccccc3nc21,2.2,-0.9
O=C(Nc1ccc(F)cc1F)C1CCN(C(=O)OCc2ccccc2)CC1,0.25,-1.2
Cc1ccc2occ(C3Nc4ccccc4NC4=C3C(=O)CC(c3ccccc3Cl)C4)c(=O)c2c1 (configuration not stated),x,-1.1
COc1ccc(C)cc1NC(=O)CCN1CCN(c2ccccc2)CC1,0.9,-0.35
COC(=O)C1=C(N)OC2=C(C(=O)CC(c3ccccc3)C2)C1c1ccc([N+](=O)[O-])cc1 (configuration not stated),x,-1.4
COc1ccc(NC(=O)CCc2nc(-c3ccccc3F)no2)c(OC)c1,0.15,0.4
CC1CCCCN1C(=O)c1noc2c1CC(C(C)(C)C)CC2 (configuration not stated),-0.45,-0.015
COc1cccc(C2C(C#N)=C(N)Oc3n[nH]c(-c4cccc([N+](=O)[O-])c4)c32)c1OC (configuration not stated),x,-0.4
Cc1nnc(NC(=O)CSc2nnc(CNC(=O)c3ccco3)n2-c2ccc(F)cc2)s1,0.05,0.74
CC(C)(C)S(=O)(=O)c1ccccn1,1.4,0.14
COc1ccc(/C=C/C(=O)Sc2cccc3cccnc23)cc1,-0.6,-0.23
CCC(SC1=NCCS1)C(=O)Nc1nc(-c2ccccc2)cs1 (configuration not stated),-0.75,-0.43
N#Cc1ccc(OC(=O)N2CCOCC2)cc1,-0.8,0.13
CCc1cc(C(=O)OCC(=O)Nc2ccccc2F)c2ccccc2n1,-0.25,-0.72
Cc1ccc(C(=O)N2CCN(CCC3CCCCC3)CC2)cc1,x,0.53
COCCNC(=O)C1CCCN(c2cnnc3c(Cl)cccc23)C1 (configuration not stated),-0.85,-0.97
O=C(O)CSC(=S)N1CC2CC(C1)c1cccc(=O)n1C2 (configuration not stated),1.5,0.12
CCN1/C(=c2/sc3nc4ccccc4n3c2=O)Sc2ccc(OC)cc21,0.25,0.1
CC(OC(=O)Cn1cnc2ccccc21)c1ccccc1Cl (configuration not stated),-0.25,x
COc1ccc(-n2nc3c(c2NC(=O)c2ccc(S(=O)(=O)N4CCCC4)cc2)CS(=O)(=O)C3)cc1,x,0.13
Cc1nc2ncnn2c(C)c1CCC(=O)O,-0.8,-0.29
C[N+]1(C)CCOC(O)(c2ccc(-c3ccc(C4(O)C[N+](C)(C)CCO4)cc3)cc2)C1 (configuration not stated),x,6.2

An unsorted share of the library; about 0.39% have a hit in one of these screens.
